High-throughput results as filed in PubChem BioAssay.
RECQ1 inh = qHTS Assay for Inhibitors of RecQ-Like Dna Helicase 1 (RECQ1); RECQ1 DNA unwinding, red fluorescence kinetic read; ATP-dependent DNA helicase Q1 (Homo sapiens), P46063; Potency, µM (top dose mostly 57.3 µM), for inactives: at the top dose activity, negative = inhibition, most hits filed as inhibitors; 240,000 tested, 0.54% active;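 further: plate controls were vehicle for no effect and no enzyme for full effect; nearly all actives have a fitted effect of over 30% in size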
Target sequence (P46063 whole entry, looked up): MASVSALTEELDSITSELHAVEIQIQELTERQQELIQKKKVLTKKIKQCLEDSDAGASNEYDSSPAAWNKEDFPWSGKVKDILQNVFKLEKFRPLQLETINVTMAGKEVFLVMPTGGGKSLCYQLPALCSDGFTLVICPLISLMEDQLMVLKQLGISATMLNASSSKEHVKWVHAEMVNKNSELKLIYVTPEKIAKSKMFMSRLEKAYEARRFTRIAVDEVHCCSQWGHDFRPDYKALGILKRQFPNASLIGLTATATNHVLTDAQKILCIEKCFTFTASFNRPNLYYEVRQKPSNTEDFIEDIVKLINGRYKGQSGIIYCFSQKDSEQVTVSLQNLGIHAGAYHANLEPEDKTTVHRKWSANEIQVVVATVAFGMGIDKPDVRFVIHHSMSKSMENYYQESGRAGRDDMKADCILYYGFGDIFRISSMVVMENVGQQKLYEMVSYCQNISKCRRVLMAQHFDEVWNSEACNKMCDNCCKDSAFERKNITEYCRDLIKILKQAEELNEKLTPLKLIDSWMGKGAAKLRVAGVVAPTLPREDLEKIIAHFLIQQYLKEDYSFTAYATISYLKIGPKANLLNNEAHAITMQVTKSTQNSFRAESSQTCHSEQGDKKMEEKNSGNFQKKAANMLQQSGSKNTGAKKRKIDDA
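RECQ1T1 50 nM; forked duplex (20 bp + 30-nt ss tails) 200 nM, ATP 2 mM final; pH 8.0, 2 mM MgCl2, 2.5 ug/ml poly(dI-dC); 15 min compound preincubation; discontinuous kinetic read over 2 h at RT.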
Luc counter = Counterscreen for Luciferase (Kinase-Glo TM) Inhibition. Kinase-Glo luciferase, ATP luminescence, 8 min. Potency, µM (highest dose often 38.3 µM), for the others: top-dose activity change, negative = inhibition, most hits filed as inhibitors. 200,000 tested, 0.28% active. AID 1379, 2008; further: on the % scale 0 is the no-effect control and ±100 the full control effect; nearly all actives have a fitted effect of over 60% in size
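Kinase-Glo luciferase light output from ATP and luciferin was measured with 10 uM ATP, within the enzyme's linear range. Buffer: 50 mM imidazole pH 7.2, 50 mM KCl, 7 mM MgCl2, 0.01% Tween 20, 0.05% BSA; luminescence read after 8 min at ambient temperature.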
Epigenetic reg = Quantitative High-Throughput Screen for Regulators of Epigenetic Control | murine LDR cells, GFP reporter derepression, 30 h | Potency, µM (titrated, usually from 53.9 µM), for inactives: at the highest dose GFP activation, most hits filed as activators | 280,000 tested, 0.2% active | AID 1865, 2009; further: % of control where 0% means no effect; nearly all actives have a fitted effect of over 60% in size
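Reporter derepression read as number of fluorescent GFP-positive objects, 20-120 um in size, counted by laser-scanning cytometer. Mouse LDR line with an epigenetically silenced CMV-GFP locus; compound incubation 30 h, 37 C.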
IMPase Li inh = qHTS Assay for Identifying the Cell-Membrane Permeable IMPase Inhibitors: Potentiation with Lithium; CHO-M1 cells, IP1 TR-FRET (IP-One), carbachol + lithium; Potency, µM (top dose mostly 59.4 µM), for the others: at the highest dose activity, negative = IMPase inhibition, hits mostly inhibitors; 210,000 tested, 0.35% active;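 further: IP1 builds up when IMPase is blocked and the TR-FRET signal falls; plate controls were basal vehicle for no effect and high inhibitor control for full effect; nearly all actives have a fitted effect of over 50% in size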
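CHO cells stably expressing M1 receptor (2000/well, cultured 16–30 h) treated 30 min at 37C with compound plus low lithium. Cytosolic IP1 by TR-FRET (665/620 ratio and 620 channel) after 10 min lysis; AC50 by Hill fit.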
NPSR antagonist = qHTS Assay for Antagonists of the Neuropeptide S Receptor: cAMP Signal Transduction. Potency, µM (series often up to 38.3 µM), without a hit: at the top dose activity change, negative = inhibition, usual class: inhibitors. CHO-NPSR cells, cAMP TR-FRET, antagonist mode. 220,000 tested, 1% active; further: on the % scale 0 is the no-effect control and ±100 the full control effect; nearly all actives have a fitted effect of over 50% in size; many of its hits are not listed in these tables
GoLoco inh red = qHTS Assay for Inhibitors of RGS12 GoLoco Motif Activity (Red Fluorophore); Gai1:RGS12 GoLoco peptide FP, rhodamine, 10 min; Guanine nucleotide-binding protein G(i) subunit alpha-1 (Homo sapiens), P63096; 230,000 tested, 0.44% active; Potency, µM (series often up to 61.6 µM), for the others: at the top dose activity, negative = inhibition, hits mostly inhibitors; AID 880, 2007; active means well fitted inhibition curve with a large enough effect, not every such curve was filed as active; inactive means no such curve, though single readings can be large or run the other way; further: on the % scale 0 is the no-effect control and ±100 the full control effect; nearly all actives have a fitted effect of over 30% in size; many of its hits are not listed in these tables
Target sequence (P63096 whole entry, looked up): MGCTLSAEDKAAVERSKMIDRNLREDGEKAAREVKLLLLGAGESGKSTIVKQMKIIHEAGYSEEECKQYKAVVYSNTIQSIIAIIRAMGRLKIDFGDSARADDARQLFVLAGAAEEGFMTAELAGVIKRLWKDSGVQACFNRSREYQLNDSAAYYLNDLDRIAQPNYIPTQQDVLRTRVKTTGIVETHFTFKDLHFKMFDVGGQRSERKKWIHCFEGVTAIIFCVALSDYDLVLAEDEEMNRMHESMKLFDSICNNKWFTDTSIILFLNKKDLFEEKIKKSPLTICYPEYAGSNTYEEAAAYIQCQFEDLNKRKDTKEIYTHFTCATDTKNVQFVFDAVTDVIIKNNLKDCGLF
SMN2 splice enh = qHTS Assay for Enhancers of SMN2 Splice Variant Expression | HEK293 SMN2-luciferase splicing reporter, luminescence, 30-36 h | Potency, µM (titrated, usually from 46.1 µM), inactives show at the highest dose activity change, positive = activation, most hits filed as activators | 210,000 tested, 2.8% active | AID 1458, 2008; further: % of control where 0% means no effect; nearly all actives have a fitted effect of over 55% in size
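HEK293 cells carry an SMN2 […]–luciferase reporter in which exon 7 inclusion puts luciferase in frame. Cells were plated 10-12 h before compound addition, then incubated 30-36 h at 37C. ONE-Glo luminescence was read; sodium butyrate at 4.5 mM final served as control.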
Numbers without * were called inactive; i = inactive; ? = inconclusive; . = no result given; [ ] = dose if it differs, or a comment. Unless noted, the call rests on the fitted dose curve; in most records, active means well fitted curve in the direction sought with a large enough effect; inconclusive means small, poorly fitted or top-dose-only effect, or another doubt; inactive means no such curve, though single readings can be large; an effect the other way counts as inactive or inconclusive. Potency means the concentration at half of the fitted maximal effect.

SMILES	RECQ1 inh	Luc counter	Epigenetic reg	IMPase Li inh	NPSR antagonist	GoLoco inh red	SMN2 splice enh
CCN(CC)CCNc1nc(-c2cccs2)c(CC(=O)O)s1	-3%	0%	2.4%	7%	8%	-6%	9%
COc1ccc(CN2CCN(S(=O)(=O)c3ccc(NC(C)=O)cc3)CC2)cc1	-14%	.	2.1%	.	4%	-3%	.
CCN(CC)c1ccc2c(C)c(Cl)c(=O)oc2c1	i	0%	1.1%	-4%	-14%	0%	.
O=C(NC(=S)NNC(=O)c1cnccn1)c1ccc(F)cc1	-6%	5%	-1.6%	-2%	-19%	-4%	-63%[inhibitor]
O=C(NNC1=C(C(=O)C(F)(F)F)CCC1)c1ccccc1Cl	-2%	-2%	-0.9%	3%[38.3 µM]	-7%[46.1 µM]	7%	10%
O=C(CN1CCCCCC1)Nc1ccccc1	-1%	4%	-1.6%	6%	10%	-18%	9%
Cc1oc(-c2cc(F)ccc2F)nc1CN1CCN(c2ncnc3ccccc23)CC1	i	-2%	0.0%	13%	28%	21%	.
COc1ccc(CNCc2cccc(OC)c2OC)cc1Br	i	3%	-0.1%	17%	-1%	-3%	-8%
CCN(CC)CCN(C)C1CCC(c2ccccc2)CC1 (stereo unspecified)	-13%	-2%	4.5%	1%	34%	-3%	-11%
N#C/C(=C/c1ccc(Oc2ccc([N+](=O)[O-])cn2)cc1)C(=O)N1CCOCC1	i	2%	0.9%	7%	7%	-9%	-10%
Cc1ccc(NC(=O)C(NC2CCCc3ccccc32)c2ccccc2)c([N+](=O)[O-])c1 (stereo unspecified)	-8%	-3%	-1.2%	4%	-29%	4%	-15%
Cc1[nH]n2c(=O)c3c(nc2c1-c1ccc(F)cc1)CCCC3	8%	0%	1.1%	8%	29%	2%	.
COc1cccc(-n2cnc3c(sc4nc(N5CCOCC5)c5c(c43)CCCC5)c2=O)c1	3%	-3%	-1.1%	8%	-23%	14%	-32%[inhibitor]
COc1ccc(C2=NN(C(C#N)c3ccc(OC)c(OC)c3)C(c3ccccc3)C2)cc1 (stereo unspecified)	i	-5%	2.0%	18%[38.3 µM]	-15%[46.1 µM]	-1%	95%
CCOc1ccc(N2C(=O)/C(=C/c3ccc(C)o3)N(C)C2=S)cc1	-3%	5%	?	-1%	5%	-20%	-6%
CN1CCCC(CC2Oc3ccccc3Sc3ccccc32)C1 (stereo unspecified)	-11%	3%	0.0%	16%	2%	2%	-24%
Cc1cccc(-n2c(SCC(N)=O)nnc2-c2ccccn2)c1C	0%	-6%	-0.7%	3%[38.3 µM]	7%[46.1 µM]	4%	5%
OC(COC(c1ccc(F)cc1)c1ccc(F)cc1)CN1CCc2ccccc2C1 (stereo unspecified)	2%	2%	0.0%	6%	?	-15%	-6%
Cc1cc(=O)[nH]c(-n2[nH]c3c(c2=O)CCCC3)n1	i	-10%	4.3%	16%[38.3 µM]	-6%[46.1 µM]	9%	-8%
Cc1cc(OC(=O)C(c2ccccc2)c2ccccc2)c([N+](=O)[O-])c(=O)[nH]1	3%	-3%	1.6%	-6%	9%	0%	15%
CCOC(=O)c1cc(-c2ccccc2)sc1NC(=O)c1ccc(OC)c(OC)c1	0%	0%	-0.1%	-3%	-17%	-12%	-26%
CC(C)(C)C(=O)NNC(=O)c1cnccn1	-10%	.	0.0%	.	12%	9%	.
CCOC(=O)C1=C(CSc2nc(C)cc(C)c2C#N)OC(N)=C(C#N)C1c1ccccc1 (stereo unspecified)	i	-2%	0.0%	14%[38.3 µM]	?	17%	-13%
COc1ccccc1N1CCN(CC(=O)Nc2c(C)n(C)n(-c3ccccc3)c2=O)CC1	-6%	0%	-2.2%	26%	3%	-11%	18%
CNS(=O)(=O)c1ccc2c(c1)NC(=O)C1CCCN21 (stereo unspecified)	-2%	-1%	-1.1%	0%	6%	19%	-9%

Sorted by molar mass (falling): part of the list above
SMILES	RECQ1 inh	Luc counter	Epigenetic reg	IMPase Li inh	NPSR antagonist	GoLoco inh red	SMN2 splice enh
Cc1ccc(NC(=O)C(NC2CCCc3ccccc32)c2ccccc2)c([N+](=O)[O-])c1 (stereo unspecified)	-8%	-3%	-1.2%	4%	-29%	4%	-15%
Cc1cc(OC(=O)C(c2ccccc2)c2ccccc2)c([N+](=O)[O-])c(=O)[nH]1	3%	-3%	1.6%	-6%	9%	0%	15%
CCN(CC)CCN(C)C1CCC(c2ccccc2)CC1 (stereo unspecified)	-13%	-2%	4.5%	1%	34%	-3%	-11%
CNS(=O)(=O)c1ccc2c(c1)NC(=O)C1CCCN21 (stereo unspecified)	-2%	-1%	-1.1%	0%	6%	19%	-9%
CC(C)(C)C(=O)NNC(=O)c1cnccn1	-10%	.	0.0%	.	12%	9%	.

Next part:
SMILES	RECQ1 inh	Luc counter	Epigenetic reg	IMPase Li inh	NPSR antagonist	GoLoco inh red	SMN2 splice enh
CC1CN(C2CCN(S(=O)(=O)c3ccc4ccccc4c3)CC2)CC(C)O1 (stereo unspecified)	-3%	.	-5.2%	.	-5%[46.1 µM]	.	.
Cc1ccc(S(=O)(=O)CCC(=O)Nc2nc3c(s2)CCCC3)cc1	1%	-1%	-1.1%	-2%[38.3 µM]	-21%[46.1 µM]	15%	-22%
O=C(NC12CC3CC(CC(C3)C1)C2)c1ccc(-c2ccc(Br)cc2)o1	-12%	2%	-1.6%	0%	-56%	-9%	16µM*
O=C(Nc1ccccc1C(F)(F)F)c1ncn[nH]1	-2%	.	4.3%	.	3%	-7%	.
c1ccc(CSC2=NNC(c3ccccn3)S2)cc1 (stereo unspecified)	-9%	.	-1.0%	.	-59%	5%	.
COc1ccc(S(=O)(=O)N2CCC(N3CCN(Cc4ccccc4)CC3)CC2)cc1	-10%	3%	-0.1%	20%	-21%	4%	-11%
Cc1ccc(C(=O)CSc2nc(C(C)C)nc3ccccc23)cc1	i	-1%	-1.4%	11%	19%	18%	.
O=C(CN1CCN(C/C=C/c2ccccc2)CC1)Nc1ccccc1C(=O)NC1CC1	i	.	0.0%	.	7%	8%	.
CC(=O)c1cc(NC(=O)c2cccc(C(F)(F)F)c2)c(=O)oc1C	-11%	-4%	?	19%	-22%	40%[activator]	15%
COc1ccc(CN2c3cc(S(=O)(=O)N4CCOCC4)ccc3N3CCCC32)cc1 (stereo unspecified)	-10%	0%	0.8%	67%[activator][38.3 µM]	7%[46.1 µM]	-1%	4%
O=C(c1ccco1)N1CCN(Cc2cccc(F)c2)CC1	7%	1%	2.0%	35%[38.3 µM]	10%[46.1 µM]	-17%	.
O=C(NC1CCCCC1)C1CCN(c2cnccn2)CC1	-13%	-4%	-0.9%	-1%[38.3 µM]	-2%[46.1 µM]	-1%	3%
Clc1ccc(OCCOCCN2CCc3ccccc3C2)c(Cl)c1	-9%	0%	-1.0%	14%	-7%	-9%	-11%
CCN(C(=O)CN1CCc2ccccc21)c1c(N)n(Cc2ccccc2)c(=O)[nH]c1=O	-8%	3%	-1.2%	9%	-1%	11%	15%
C/C=C/c1ccc(OCCCCN2CCN(CC)CC2)c(OC)c1	i	-2%	1.1%	15%	5%	-12%	-13%
COCCCNC(=S)N1CCN(C(=O)C(=O)Nc2ccc(C(=O)OC)cc2)CC1	?	5%	-1.8%	3%	8%	0%	-19%
O=c1cc(O)c2sc(Nc3ccc(F)cc3)nc2[nH]1	-2%	-6%	1.1%	18%	9%	112%[activator]	14%
Fc1ccc(NC(=S)NCCN2CCOCC2)cc1	-2%	-2%	0.0%	12%	-5%	20%	.
COC(=O)c1ccc(NC(=O)C(=O)N2CCN(C(=S)Nc3ccc(OC)cc3)CC2)cc1	0%	3%	0.0%	-1%	-19%[46.1 µM]	0%	-51%[inhibitor]
Cc1ccc(C)c(N2CCN(C(c3ccncc3)c3nnnn3Cc3ccccc3)CC2)c1 (stereo unspecified)	-8%	10%	-0.9%	-11%[38.3 µM]	-2%[46.1 µM]	0%	-4%
Cc1cccc(OC2CCN(Cc3c(C(=O)N4CCCC4)nc4ccccn34)CC2)c1	11%	-3%	4.8%	7%	16%	4%	.
COC(=O)Cn1nc(-c2ccccc2)c2ccccc21	-6%	-3%	2.1%	12%[38.3 µM]	-23%[46.1 µM]	8%	-36%[inhibitor]
CCC(C)NCCCOc1ccc(Cl)cc1C(C)(C)C (stereo unspecified)	-1%	-3%	-1.2%	-7%	1%	-9%	7%
C=C(C)c1cccc(C(C)(C)NC(=O)NCc2ccncc2)c1	-9%	-1%	10%	-4%	24%	-45%	.
COc1ccc(NC(=O)C2(c3ccc(NC(=O)c4ccc(OC)c(OC)c4)cc3)CCCC2)cc1	i	-2%	-0.9%	2%[38.3 µM]	-1%[46.1 µM]	5%	8%
More entries follow.
SMILES	RECQ1 inh	Luc counter	Epigenetic reg	IMPase Li inh	NPSR antagonist	GoLoco inh red	SMN2 splice enh
NC(=O)CC(NSc1ccccc1[N+](=O)[O-])C(=O)O (stereo unspecified)	-1%	.	1.5%	-5%	-14%	0%	.
Cc1ccc(N2C(=O)c3cccc4c([N+](=O)[O-])ccc(c34)C2=O)c2cccnc12	-11%	.	?	.	-41%	30%	.
COCCOCC(O)CN1CCN(c2ccccc2)CC1 (stereo unspecified)	i	-4%	-1.0%	15%[38.3 µM]	-6%[46.1 µM]	-5%	19%
Cc1[nH]n(-c2ccccc2)c(=O)c1/C=N/NC(=O)C(C)C	0%	-3%	-0.2%	10%	-2%	-3%	-72%[inhibitor]
Cn1c(=O)c(C(=O)Nc2ncccc2O)c(O)c2ccccc21	i	-4%	-5.8%	1%[38.3 µM]	-13%[46.1 µM]	16%	24%
Brc1cccc(OCCCCN2CCCCC2)c1	i	4%	-0.9%	21%	11%	-1%	15%
C=CCC(Nc1ccco1)c1ccccc1 (stereo unspecified)	-8%	1%	-1.1%	29%[38.3 µM]	-13%[46.1 µM]	36%[activator]	9%
CN1C(=O)/C(=C/c2cccc(Cl)c2)Sc2ccc(C(=O)NCc3cccnc3)cc21	-12%	-2%	-1.1%	10%	-34%	11%	-59%
Cc1c(-c2nn(C)c(=O)c3ccccc23)oc2ccc(F)cc2c1=O	-5%	.	-10%	.	-5%[46.1 µM]	.	.
COc1ccc(N(CC(=O)Nc2ccc(S(=O)(=O)N3CCCCC3)cc2)S(C)(=O)=O)cc1OC	-5%	0%	-1.0%	-1%[38.3 µM]	-17%[46.1 µM]	3%	-13%
COc1ccc(OC)c(CN2CCC(C(=O)N(C)CCc3ccc(OC)c(OC)c3)CC2)c1	-5%	-3%	1.4%	12%	-8%	-36%	.

The list is partial, so the mix of outcomes need not match the whole.
